Screens: PubChem BioAssay, several laboratories
GALR2 ag = activates the human galanin receptor 2; O43603; GALR2-expressing cells, agonist activation read-out; activation, %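 (tested at 5 µM)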; actives 0.48% (n = 140,000); AID 803;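 active = above mean plus 3 SD of all compounds, about 5% in these data, not always enough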;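 also: 0% = vehicle buffer wells and 100% = reference agonist at full effect; tested in CHO reporter cells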
Target sequence (O43603 whole entry, looked up): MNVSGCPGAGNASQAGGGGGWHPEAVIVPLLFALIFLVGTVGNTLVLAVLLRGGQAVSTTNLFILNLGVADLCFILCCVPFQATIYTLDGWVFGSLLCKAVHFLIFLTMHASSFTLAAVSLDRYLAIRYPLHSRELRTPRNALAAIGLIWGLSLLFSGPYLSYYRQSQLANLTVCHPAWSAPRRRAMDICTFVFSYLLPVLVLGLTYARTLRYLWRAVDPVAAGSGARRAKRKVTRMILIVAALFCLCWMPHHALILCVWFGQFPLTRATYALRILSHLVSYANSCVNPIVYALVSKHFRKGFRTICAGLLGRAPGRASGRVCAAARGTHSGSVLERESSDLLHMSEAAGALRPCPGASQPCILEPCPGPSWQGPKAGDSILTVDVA
HSV augment = HSV replication enhancement. maximum fold increase. actives 0.005% (n = 220,000). AID 1956. HSV replication augmentation in cells, fold increase;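 active = peak rise of 1.5-fold or more in the series; inconclusive = self-fluorescent or not available for retest; tested in PC3 cells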;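 also: first round at 10 µM; read as green reporter fluorescence; hits show the peak of a series up to 25 µM; 1 = signal of infected wells without compound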
RGS16-Gao HTS = RGS16-Galphao interaction regulator (human). bead-based flow cytometry RGS16-Galphao binding, fluorescence; actives lie on both sides. binding response (% of control), % at 10 µM. actives 0.38% (n = 220,000);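 active = below 25% or above 175%, edge rows of some plates excepted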;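 also: Galphao activated by GDP with aluminum fluoride before binding; 100% = wells without compound and 0% = beads without RGS; some results beyond the cut were filed as inactive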
Target sequence (O15492 whole entry, looked up): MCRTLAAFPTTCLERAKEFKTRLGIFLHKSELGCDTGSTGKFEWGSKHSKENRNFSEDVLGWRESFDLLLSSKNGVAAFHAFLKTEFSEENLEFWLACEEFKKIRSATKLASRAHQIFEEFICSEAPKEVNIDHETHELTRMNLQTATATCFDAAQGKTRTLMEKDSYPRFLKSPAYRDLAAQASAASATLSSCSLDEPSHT
Target sequence (P09471 whole entry, looked up): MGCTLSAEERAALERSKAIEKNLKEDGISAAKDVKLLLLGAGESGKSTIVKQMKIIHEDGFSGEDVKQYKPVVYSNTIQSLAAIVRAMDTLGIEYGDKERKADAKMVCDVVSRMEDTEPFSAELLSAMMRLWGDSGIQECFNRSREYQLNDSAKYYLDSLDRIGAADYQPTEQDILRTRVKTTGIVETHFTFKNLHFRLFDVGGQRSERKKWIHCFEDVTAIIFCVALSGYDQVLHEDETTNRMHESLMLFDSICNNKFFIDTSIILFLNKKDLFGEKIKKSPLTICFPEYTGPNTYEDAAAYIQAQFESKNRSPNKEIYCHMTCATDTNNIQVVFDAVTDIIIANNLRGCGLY
INS promoter inh = TRM-6 insulin promoter activity inhibition; TRM-6 cells (human fetal islet line), insulin promoter-eGFP reporter, imaging; reporter expression induced with tamoxifen; inhibition, % at 2 µM; actives 0.9% (n = 130,000);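 active = inhibition above the mean plus 3 SD, with well images judged a real hit on visual review, cut at about 60% in these data, passing the limit was not always enough; inconclusive = inhibition over the cutoff but images rejected on review; inactive = inhibition not above the cutoff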
PKD1 kinase inh = blocks activity of human protein kinase D1. actives 0.056% (n = 200,000). inhibition, %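 (about 10 µM by stock and volumes)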. PKD1 kinase fluorescence polarization assay;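 active = inhibition of 50% or more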;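 also: controls were vehicle for no effect and a reference inhibitor for full effect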
INS promoter inh cell count = also measured in INS promoter inh; calls as there; normalized cell count, %; measured here: cell count, toxicity; reference of the scale not given here;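 cells exposed to compound for 48 h; stained nuclei by imaging scaled within each plate; lower means fewer cells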
HSV augment primary fold = recorded beside HSV augment, whose call it bears; fold increase; compound at 10 µM; measured here: primary screen fold increase 10 uM; tested in PC3 cells;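 GFP signal in the first replicate; 1 = infected wells without compound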
* marks the source's active call; other numbers are inactive results; i = inactive; ? = inconclusive; . = not tested or not shown.

SMILES	GALR2 ag	HSV augment	HSV augment primary fold	RGS16-Gao HTS	INS promoter inh	INS promoter inh cell count	PKD1 kinase inh
Cc1ccc(Nc2nc(N)nc(CSc3nc(C)cc(C)n3)n2)cc1	-0.7	i	0.8	102	43	58	-1
c1ccc(-n2cnnc2SCc2nc3ccccc3s2)cc1	-0.4	i	1	96	.	.	7
COc1ccc(N=C2C(=O)Nc3c(C)cccc32)cc1	-2.3	i	1	95	-14	109	-1
CC(C)(C)NC(=O)COC(=O)c1snc(C(=O)NC2CCCCC2)c1N	-0.7	i	0.88	102	-3	217	-7
Cn1ncc2c(Nc3ccc([N+](=O)[O-])cc3)nc(Cl)nc21	.	i	0.94	112	.	.	.
CC/C(=N\NC(=O)COc1ccc(Br)cc1)c1ccc(OC)c(OC)c1	.	i	0.93	97	.	.	4
CC(=O)Nc1ccccc1C(=O)C(=O)Nc1cccc(C(=O)NCc2ccc(C)cc2)c1	-1.4	i	1.1	126	-19	107	-4
CCN(CC)c1ccc(/C=C/c2cc(-c3ccccc3)c3ccccc3n2)cc1	.	?	.	128	.	.	.
Brc1cc(Br)c2nc(-c3ccc(N4CCOCC4)cc3)ccc2c1	0.5	.	.	97	.	.	-9
O=c1c2ccccc2c(C=NCCc2ccccc2)c(O)n1Cc1ccccc1	-3.0	i	0.94	92	38	16	-3
Cc1c(O)ccc(/C=N/Nc2nc(-c3cccnc3)nc3ccccc23)c1O	.	i	0.74	95	.	.	.
CC(=O)c1cnc2c(-c3ccccc3)cnn2c1C	-4.0	i	1.3	98	-5	119	5
N=C(N)SCc1cccc2ccccc12	-1.3	i	0.97	105	-3	153	-5
O=C(CCn1c(=O)[nH]c2ccsc2c1=O)N1CCc2ccccc2C1	-1.7	i	1.1	107	.	.	-4
CCN1CCN(C(c2ccccc2OC)c2nnnn2C2CCCCC2)CC1 (stereo not drawn)	-1.9	i	0.81	98	.	.	6
C/C=C/c1cc(CN2CCN(c3ccccc3)CC2)c(O)c(OC)c1	.	i	1.1	99	.	.	-5
Cc1ccc(-c2cc(C(F)(F)F)c(C#N)c(=O)[nH]2)cc1	-0.1	i	0.9	104	17	151	1
O=C(NCC(c1ccco1)N1CCN(c2ccccc2)CC1)OCc1ccccc1 (stereo not drawn)	-0.2	i	1.1	120	.	.	-14
CCOC(=O)N1c2ccccc2Sc2ccccc21	.	i	0.96	109	.	.	8
CCOC(=O)Cc1csc(NC(=O)COc2ccc(C)c(C)c2)n1	.	i	1	99	19	138	8
Cc1ccc2c(CSc3nncn3C)cc(=O)oc2c1C	.	i	0.9	107	33	169	-4
O=C(Cn1nc(-c2cccc(Cl)c2)ccc1=O)Nc1cccnc1	-1.4	i	1.1	90	.	.	-7
CCOc1ccc(NS(=O)(=O)c2ccc(NC(=O)c3cccnc3)c(OC)c2)cc1	.	i	0.95	100	.	.	-3
COC(=O)c1ccc(-c2n[nH]c(=O)c3ccccc23)cc1	-2.3	i	0.96	104	-338	71	-2
COC(=O)c1sc(S(=O)(=O)NC(C)C(=O)O)c(C(=O)OC)c1C (stereo not drawn)	.	i	0.92	102	.	.	-4

Next section:
SMILES	GALR2 ag	HSV augment	HSV augment primary fold	RGS16-Gao HTS	INS promoter inh	INS promoter inh cell count	PKD1 kinase inh
Cc1cc(SCC(=O)N(C)CC(=O)Nc2ccc(F)cc2)nc2ccccc12	-0.7	i	1.1	105	-66	103	-9
O=C(CN(c1ccc2c(c1)OCCO2)S(=O)(=O)c1ccccc1)NCC1CCCO1 (stereo not drawn)	-2.9	i	0.99	99	20	129	-6
O=C(Nc1nnc(Cc2ccc(Cl)cc2)s1)c1cccs1	-4.2	i	0.8	98	8	67	-7
CCOC(=O)C1=C(CN2CCC(C)CC2)NC(=O)NC1c1ccc(Cl)cc1 (stereo not drawn)	0.6	i	0.89	100	0	82	6
Cc1ccc(S(=O)(=O)CC(=O)c2ccc(C(C)(C)C)cc2)cc1	-2.1	i	0.86	102	.	.	-2
COc1ccccc1NC(=S)NCCc1c[nH]c2ccccc12	-1.1	i	0.95	108	-14	144	-2
CCCNC(=O)C(=O)N/N=C/c1ccc(OCc2ccccc2)cc1	.	i	1	102	56	88	-2
CCCn1c2ccccc2c2nnc(SCC(=O)Nc3nnc(CC(=O)OCC)s3)nc21	-1.0	i	0.94	88	16	76	0
O=C(Nc1ccc(Cc2ccncc2)cc1)c1cccc([N+](=O)[O-])c1	-0.9	i	0.96	90	-31	82	3
O=C(Cc1cccs1)Nc1ccccc1-c1nc2ccccc2[nH]1	.	i	0.76	99	.	.	.
CC1=C(Sc2nc3ccccc3[nH]2)C(=O)NC(C)(C)C1	-1.2	i	0.87	99	-7	140	0
Cc1ccc(NC(=O)CCC(=O)OCC(=O)c2ccc(-c3ccccc3)cc2)cc1	0.3	i	0.88	105	8	88	8
COc1cc(Br)cc2cc(C(=O)N3CCCCC3C)c(=O)oc12 (stereo not drawn)	-0.4	i	0.84	104	-49	110	-4
Cc1cccc(N2CCN(C(=O)C(NS(=O)(=O)c3cccs3)c3ccccc3)CC2)c1C (stereo not drawn)	-3.3	i	0.87	99	4	13	3
Nc1cccc(-c2nc3ccccc3[nH]2)c1	0.1	i	0.97	100	75*	54*	1
CCOCCCNC(=O)c1ccc(N2CCOCC2)c(NS(=O)(=O)c2ccc(OC)cc2)c1	.	i	0.91	101	.	.	-3
COC(=O)c1ccc(Cn2cnc3c(cnn3-c3ccc(C)c(C)c3)c2=O)o1	-1.9	i	0.97	86	31	113	-5
O=C(/C=C/c1cccs1)Nc1ccc(N2CCOCC2)c(S(=O)(=O)Nc2ccccc2Cl)c1	-1.2	i	0.96	110	17	135	-3
Clc1ncccc1-c1nnn(-c2ccccc2)n1	.	i	0.68	79	.	.	-3
CC(=O)SC(C[N+](=O)[O-])c1cn(C(C)=O)c2ccccc12 (stereo not drawn)	-1.1	i	0.99	88	5	72	-11
CN1C(C(=O)NCc2ccc(OC(F)(F)F)cc2)CC2Cn3c(nc4cc(Cl)c(Cl)cc43)C21 (stereo not drawn)	.	i	1	101	.	.	.
Cc1cccc(N2CCN(C(=O)/C=C/c3cccs3)CC2C)c1 (stereo not drawn)	.	i	0.96	111	-55	21	-4
CCCOc1cccc(CN2CCCCC2c2cccnc2)c1 (stereo not drawn)	-0.4	.	.	103	12	91	3
O=c1[nH]c(NCCO)nc2c1C1(CCCCC1)Cc1ccccc1-2	-1.8	i	1	102	-388	72	1
COc1cc(C2C3=C(CC(C)(C)CC3=O)OC(N)=C2[N+](=O)[O-])ccc1O (stereo not drawn)	-0.7	i	0.89	97	.	.	-2

(more compounds)
SMILES	GALR2 ag	HSV augment	HSV augment primary fold	RGS16-Gao HTS	INS promoter inh	INS promoter inh cell count	PKD1 kinase inh
COc1ccc(-c2nc3c(n2O)CCc2c-3no[n+]2[O-])cc1	.	i	0.86	84	.	.	.
Cc1nc(-c2cccs2)sc1C(=O)NN	.	i	0.75	100	.	.	.
COc1ccc2c(CC(=O)NCC3CCC(C(=O)O)CC3)cc(=O)oc2c1 (stereo not drawn)	0.5	.	.	102	-8	100	0
COC(=O)c1cc(Cl)c(NC(=O)/C=C/c2ccc(Cl)cc2)cc1OC	-0.9	i	1	100	0	83	-1
COc1ccc(NC(=O)C2CCCCN2CC(=O)OCc2ccccc2)cc1OC (stereo not drawn)	0.0	i	0.99	95	9	71	-6
COc1ccc(-c2noc(CCCC(=O)O)n2)cc1	-1.1	i	1	100	-2	41	-17
CC(=O)Nc1sc2c(c1CN1CCN(C)CC1)CCCC2	-0.5	i	0.9	94	21	109	-3
N=C1/C(=C/c2cccn2-c2ccc([N+](=O)[O-])cc2)C(=O)N=C2SC=CN12	0.3	i	0.87	95	-30	107	-8
O=C(CCc1nnc(-c2ccccc2)o1)NCC1CCN(C2CCCC2)CC1	.	i	0.82	89	.	.	6
COc1cccc(C(=O)COc2ccccc2N2C(=O)C3C4C=CC(C4)C3C2=O)c1 (stereo not drawn)	-1.2	i	0.94	99	-62	115	-5
COc1ccc(Nc2nccc(OC)c2C#N)cc1	-2.4	i	1.2	99	19	84	0
Cc1ccc2cc(CN(Cc3cccs3)Cc3nnnn3CC3CCCO3)c(=O)[nH]c2c1C (stereo not drawn)	-0.1	i	0.98	99	-43	127	-3
CCN1CCN(CC(=O)Nc2nc3ccc(OC)cc3s2)CC1	-2.4	.	.	104	-1	92	-3
CN(C)S(=O)(=O)c1cccc(NC(=S)N/N=C/c2cccc(O)c2)c1	.	i	0.96	112	15	122	-3
CCOC(=O)c1[nH]c2ccc(OC)cc2c1N=CN(C)C	-1.3	i	1	94	.	.	5
O=C(Nc1ccc(S(=O)(=O)Nc2nccc(C3Cc4ccccc4C(=O)O3)n2)cc1)c1ccccc1 (stereo not drawn)	-1.4	i	0.99	101	53	105	-4
c1ccc(-c2nnc3n2N=C(c2ccc4c(c2)OCO4)CS3)nc1	-1.8	i	0.76	101	18	91	-12
COCCn1c(SCC(=O)Nc2cc(C)nn2-c2ccccc2)nnc1-c1ccncc1	-1.3	i	1	98	-50	101	6
Cc1cccc(OCCCCc2c(C)n[nH]c2C)c1	0.9	i	1	101	-92	96	-3
COC(=O)CC1C(C(=O)OC)ON2OC(C(=O)OC)C(C(=O)OC)C12 (stereo not drawn)	-0.4	i	1	100	28	75	1
Cn1cnnc1SCC(=O)NN(c1ccccc1)c1ccccc1	-1.1	i	1	113	16	88	-1
CCc1ccc(-c2csc3ncn(CC(=O)NCc4ccco4)c(=O)c23)cc1	.	i	0.92	96	.	.	.
N/C(=N\c1nc(CSc2ccc(Cl)cc2)cc(=O)[nH]1)Nc1ccccc1C(F)(F)F	.	i	0.98	106	.	.	5
Cc1cc(NC(=O)CCCn2nc([N+](=O)[O-])c(Cl)c2C)no1	.	i	1.1	101	18	111	4
CCN(CC)CCCn1c(=S)[nH]c2cc(Cl)ccc2c1=O	-3.1	i	1.1	98	11	102	-5

The last two compounds of the part before lead into the next:
SMILES	GALR2 ag	HSV augment	HSV augment primary fold	RGS16-Gao HTS	INS promoter inh	INS promoter inh cell count	PKD1 kinase inh
Cc1cc(NC(=O)CCCn2nc([N+](=O)[O-])c(Cl)c2C)no1	.	i	1.1	101	18	111	4
CCN(CC)CCCn1c(=S)[nH]c2cc(Cl)ccc2c1=O	-3.1	i	1.1	98	11	102	-5
O=C(O)c1cccc(Oc2cccc(Cl)n2)c1	.	i	0.98	101	.	.	-5
COc1ccc2cc(C(=O)C3CCCN(Cc4ccccn4)C3)ccc2c1 (stereo not drawn)	.	i	1	108	.	.	-5
O=C(CCCN1C(=O)c2ccccc2C1=O)NCCN1C(=O)S/C(=C\c2cccs2)C1=O	-1.1	i	1	101	-3	105	1
O=C(O)c1cccc(S(=O)(=O)Nc2cc(Cl)ccc2Cl)c1	.	i	1.2	94	.	.	.
Cc1cccc(N2CCN(C3=NC(=O)/C(=C\c4cn[nH]c4-c4ccccc4)S3)CC2)c1	2.0	i	0.8	6	37	93	1
O=C(CSCC(=O)OCC(=O)c1ccc(Br)cc1)Nc1ccc(Br)cc1	-3.0	i	1.1	98	.	.	1
CC(C)(C)n1nc2c(c1NC(=O)c1ccc(S(=O)(=O)N3CCCC3)cc1)CS(=O)C2 (stereo not drawn)	-0.8	i	0.98	89	.	.	-4
CCc1nc(SCC(=O)Nc2nnc(CC)s2)c2c(C)c(C)sc2n1	-1.6	i	0.63	137	-254	53	-2
Cc1ccccc1OCC(O)CN1CCN(C)CC1 (stereo not drawn)	.	i	1	103	.	.	-9
NC(=O)CSc1nnc(-c2ccc(S(=O)(=O)N3CCOCC3)cc2)n1Cc1ccccc1	-1.1	i	0.9	104	29	142	4
COc1ccccc1C(=O)Nc1nc(-c2cccs2)c(NC(C)=O)s1	1.2	i	0.91	102	7	82	-4

By substructure: the compounds so far with a nitro group on carbon.
SMILES	GALR2 ag	HSV augment	HSV augment primary fold	RGS16-Gao HTS	INS promoter inh	INS promoter inh cell count	PKD1 kinase inh
Cn1ncc2c(Nc3ccc([N+](=O)[O-])cc3)nc(Cl)nc21	.	i	0.94	112	.	.	.
O=C(Nc1ccc(Cc2ccncc2)cc1)c1cccc([N+](=O)[O-])c1	-0.9	i	0.96	90	-31	82	3
CC(=O)SC(C[N+](=O)[O-])c1cn(C(C)=O)c2ccccc12 (stereo not drawn)	-1.1	i	0.99	88	5	72	-11
COc1cc(C2C3=C(CC(C)(C)CC3=O)OC(N)=C2[N+](=O)[O-])ccc1O (stereo not drawn)	-0.7	i	0.89	97	.	.	-2
N=C1/C(=C/c2cccn2-c2ccc([N+](=O)[O-])cc2)C(=O)N=C2SC=CN12	0.3	i	0.87	95	-30	107	-8
Cc1cc(NC(=O)CCCn2nc([N+](=O)[O-])c(Cl)c2C)no1	.	i	1.1	101	18	111	4
